# TRPML1 inh – qHTS for Inhibitors of the Human Mucolipin Transient Receptor Potential 1 (TRPML1) | 0.02% of 390,000 active | TRPML1-inducible cells, Ca2+ dye fluorescence, FDSS; active compounds read low; inhibition of EC80 agonist-evoked calcium signal | Mucolipin-1 (Homo sapiens), Q9GZU1 | AID 624415, 2012 | activity change, negative = inhibition, % (test concentration not listed); in the data active means activity change below about -50%; inconclusive means about -30% to -50%; inactive means above about -30%;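 further: stimulus is agonist 54-4 at its EC80 concentration; on the % scale 0 is the no-effect control and ±100 the full control effect; compound concentration not given in the record; the text of the record puts the active cut at -80%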
# Target sequence (Q9GZU1 whole entry, looked up): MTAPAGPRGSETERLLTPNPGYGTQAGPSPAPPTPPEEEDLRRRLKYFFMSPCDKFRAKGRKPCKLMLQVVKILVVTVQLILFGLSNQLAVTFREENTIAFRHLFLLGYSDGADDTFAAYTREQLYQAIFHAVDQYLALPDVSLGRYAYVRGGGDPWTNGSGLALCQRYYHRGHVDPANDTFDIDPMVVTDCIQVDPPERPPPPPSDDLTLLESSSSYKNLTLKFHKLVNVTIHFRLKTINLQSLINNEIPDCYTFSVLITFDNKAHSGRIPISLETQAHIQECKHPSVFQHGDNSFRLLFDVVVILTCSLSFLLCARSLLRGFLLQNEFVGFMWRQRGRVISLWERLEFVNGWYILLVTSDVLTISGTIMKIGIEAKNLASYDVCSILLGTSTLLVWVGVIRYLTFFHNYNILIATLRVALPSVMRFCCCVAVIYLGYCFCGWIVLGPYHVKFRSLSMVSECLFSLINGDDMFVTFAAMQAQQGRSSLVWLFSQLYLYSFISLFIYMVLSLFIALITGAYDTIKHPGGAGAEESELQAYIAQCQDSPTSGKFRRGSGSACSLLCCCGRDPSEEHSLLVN
#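 TRPML1-DL cells, Tet-induced overnight (~16 h, 37 °C) at 1,500 cells/well, were loaded with Ca8 no-wash dye plus quencher for 45-90 min at room temperature. Compounds were pinned during FDSS kinetic reading; agonist 54-4 at EC80 (4 uM final) then added.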
# D2 ag – Beta-Arrestin HTS for Positive Allosteric Modulators of the Human D2 Dopamine Receptor: Agonists; D(2) dopamine receptor (Homo sapiens), P14416; DiscoveRx PathHunter D2 beta-arrestin, luminescence, 90 min; 100% = 57 uM dopamine signal; activation, % (test concentration not listed); 0.084% of 360,000 active; AID 624465, 2012; in the data active = activation above about 40%; inconclusive = about 15% to 40%; inactive = below about 15%; further: compound concentration not given in the record; the text of the record calls up to 30% inactive
# Target sequence (P14416 whole entry, looked up): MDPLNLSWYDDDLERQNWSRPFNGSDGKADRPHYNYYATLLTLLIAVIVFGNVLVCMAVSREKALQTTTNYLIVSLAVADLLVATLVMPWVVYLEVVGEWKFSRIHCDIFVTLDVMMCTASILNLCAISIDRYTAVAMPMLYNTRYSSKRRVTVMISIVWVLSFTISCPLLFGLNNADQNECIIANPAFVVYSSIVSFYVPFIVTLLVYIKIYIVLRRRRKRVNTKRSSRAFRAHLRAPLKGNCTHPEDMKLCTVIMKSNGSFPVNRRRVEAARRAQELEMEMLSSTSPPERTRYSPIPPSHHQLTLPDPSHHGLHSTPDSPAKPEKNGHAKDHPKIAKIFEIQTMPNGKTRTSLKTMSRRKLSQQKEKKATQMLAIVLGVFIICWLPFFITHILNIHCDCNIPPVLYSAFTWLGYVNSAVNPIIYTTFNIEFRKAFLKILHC
#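 DiscoveRx PathHunter D2 beta-arrestin cells (2,100/well) attached overnight, then compound-stimulated 90 min at 37 C in HBSS/10 mM HEPES/0.1% Tween-20 buffer; beta-galactosidase complementation read by luminescence after 1 h at ambient temperature. Dopamine 57 uM final (EC100) as control.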
# TRPML1 agonist – qHTS for Agonists of the Human Mucolipin Transient Receptor Potential 1 (TRPML1); AID 624414, 2012; Mucolipin-1 (Homo sapiens), Q9GZU1; activation, % (concentration not given with the values); 0.12% of 410,000 active; TRPML1-expressing cells, Ca2+ dye fluorescence, FDSS; host cell line not named in the record; reference of the full effect not given here; in the data active = activation above about 50%; inconclusive = about 30% to 50%; inactive = below about 30%; further: 0% is about no effect; the text of the record puts the active cut at 80%
#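 TRPML1-DL cells, Tet-induced overnight (~16 h, 37 degrees C), loaded 45-90 min at room temperature with Ca8 no-wash calcium dye plus quencher. FDSS fluorescence: 10 s baseline, compound pin-transfer, 110 s agonist read, then EC80 54-4 (4uM final) and 110 s antagonist read.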
# PINK1 expr mod – A Quantitative High throughput Screen to Identify Chemical Modulators of PINK1 Expression; PINK1 immunofluorescence, high-content cytometry, 24 h; Potency, µM (titrated, usually from 76.6 µM), for inactives: at the highest dose activation (PINK1 increase), most hits filed as activators; 0.2% of 410,000 active; active = well fitted activation curve with a large enough effect; inconclusive = small, poorly fitted or top-dose-only effect; inactive = flat fitted curve, though single readings scatter; cell line not stated here;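 further: potency means the concentration at half of the fitted maximal effect; % of control where 0% means no effect; nearly all actives have a fitted effect of over 65% in size; a mitochondrial uncoupler was the plate control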
#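 PINK1 protein, normally rapidly degraded, was detected by immunofluorescence after 24 hour compound treatment of a stable cell line. Titration data (5 concentrations) came from laser-scanning cytometry, with CCCP-treated wells as controls.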
# Six1-Eya2 inh – qHTS Assay for Inhibitors of the Six1/Eya2 Interaction; AlphaScreen GST-Six1/His-Eya2 binding, biochemical; active compounds read low; control for the full effect not named in the record; activity change, % (concentration not given with the values); 0.56% of 360,000 active; AID 651725, 2012; in the data active = activity change below about -65%; inconclusive = about -30% to -65%; inactive = above about -30%; further: on the % scale 0 is the no-effect control and ±100 the full control effect
#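 GST-Six1 + His-Eya2 (5X stock: 250/500 nM); Tris pH 8.0, 300 mM NaCl, 0.05% BSA, 0.02% Tween 20; GSH donor/Ni acceptor beads; 1 h 37 °C dark; AlphaScreen readout.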
# D2 PAM – Beta-Arrestin HTS for Positive Allosteric Modulators of the Human D2 Dopamine Receptor: Potentiators; D(2) dopamine receptor (Homo sapiens), P14416; 0.23% of 360,000 active; AID 624464, 2012; potentiation, % (no concentration beside the values); DiscoveRx D2 beta-arrestin cells, luminescence, 90 min; 100% = 57 uM dopamine signal; active = potentiation of 50% or more; inconclusive = 30% to 50%; inactive = 30% or less;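 further: compound concentration not given in the record; tested on top of an EC20 dose of dopamine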
#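 PathHunter D2 cells, attached overnight at 37 deg C, received compound in DMSO plus dopamine at EC20 (50 nM final) for 90 min at 37 deg C. Beta-arrestin recruitment was read as luminescence after 1 h with detection reagent at ambient temperature.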
# An asterisk follows results filed as active; ? = inconclusive; · = not tested or not shown; [ ] = remark or other dose.
# Second line of a record – TRPML1 inh	D2 ag	TRPML1 agonist	PINK1 expr mod	Six1-Eya2 inh	D2 PAM
CCOCCCNc1ccc(-c2ccccc2)nn1
 : 0	4.5	1.9	?	2	11
CCOC(=O)c1sc(NC(=O)c2ccc(S(=O)(=O)N3CCCCC3)cc2)nc1-c1ccccc1
 : 2	-2.7	0.4	8.0%	12	-26
CC(C)Cn1c(-c2cccc(Br)c2)nc2ccccc21
 : 43	·	5.8	1.1%	·	·
O=C(O)COc1ccc(S(=O)(=O)N2CCCC2)cc1
 : 7	-3.8	2.2	1.5%	9	-1
CC(=O)CCC1C2C(O)C(C(C)C)C(OC(=O)/C=C/c3ccccc3)CC12C (stereo not given)
 : -4	4.2	0.0	0.4%	3	0
COc1ccc(-c2cn3cccnc3n2)cc1F
 : -4	3.9	-0.2	1.7%	-2	2
Cc1cccc(NC(=O)c2nc[nH]c2C(=O)NCC(=O)OC(C)(C)C)c1
 : -12	1.1	2.8	4.5%	-25	0
Cc1ccc(CNC(=O)C2CCN(S(=O)(=O)c3c(C)noc3C)CC2)cc1
 : 4	-1.0	-0.5	-0.7%	3	2
O=C(Nc1ccc(Cl)cc1C(=O)N1CCCC1)c1cccc([N+](=O)[O-])c1
 : -3	-2.9	-0.5	-0.2%	-2	-8
CC(C)c1ccc(CN(C)CC(O)c2ccccc2)cc1 (stereo not given)
 : -6	-5.3	-0.5	-0.1%	-2	-7
COc1ccc(CN(C(=O)Cc2c[nH]c3ccccc23)C(C(=O)NC2CCCCC2)c2ccc(C)o2)cc1 (stereo not given)
 : 37	0.0	2.6	·	-4	-10
CCCC(=O)Nc1ccc2oc(-c3cccnc3)nc2c1
 : -1	-2.5	-0.3	-1.5%	5	?
COc1cccc(CC(=O)N2CCCC(CCC(=O)N3CCN(c4ccccn4)CC3)C2)c1 (stereo not given)
 : 15	0.8	0.3	0.6%	5	4
Cc1ccc(Cl)cc1-n1ncc2c(NCCC3=CCCCC3)ncnc21
 : 35	·	1.1	?	·	·
Cc1ccc(NC(=O)c2nc[nH]c2C(=O)N[C@H](C)c2ccccc2)cc1
 : 15	-4.6	0.8	5.0%	-5	-16
Cc1cc(N2C(=O)C(O)=C(C(=O)c3ccco3)C2c2ccc(O)cc2)no1 (stereo not given)
 : -18	-3.8	0.1	1.2%	12	-11
O=C(O)CCCC(=O)Nc1cccc2cccnc12
 : -5	0.0	2.1	-3.4%	6	15
COc1cccc(CN2C(=O)CCC2(C)C(=O)NC2CCCC2)c1 (stereo not given)
 : 97	-2.6	0.8	-1.9%	4	-3
O=C(CC1N=C2c3ccccc3N=C(SCC(=O)Nc3ccccc3F)N2C1=O)NCc1cccs1 (stereo not given)
 : 16	·	-0.1	-1.1%	·	·
CCOc1ccc(/C=C(\C#N)c2nc(-c3cc4ccccc4oc3=O)cs2)c(OCC)c1
 : -6	·	2.3	?	·	·
O=C(CNC(=O)C1CC1)Nc1ccc(F)c(F)c1F
 : 2	0.9	-0.7	-0.1%	-2	3
COC(=O)C1=C(C)NC(=O)/C1=C\c1cc(C)n(-c2ccccc2)c1C
 : 17	-0.4	0.0	?	-2	-6
CCn1cc(C(=O)NCC(=O)NCCCN2CCOCC2)c(=O)c2cc3c(cc21)OCO3
 : 1	-4.8	-0.4	-0.7%	?	-5
COc1ccccc1CNS(=O)(=O)c1ccc2c(c1)NC(=O)CS2
 : -18	3.0	-0.6	0.2%	0	0
CC1CCCCN1CC(=O)Nc1ccc(Oc2ccccc2)cc1 (stereo not given)
 : -2	-2.2	22	1.4%	3	-3
Cc1ccc(C)c(N2CCN(C3CCCCC3NS(=O)(=O)c3ccccc3)CC2)c1 (stereo not given)
 : -4	-1.8	0.0	3.1%	-5	-20
COc1ccc(NC(=O)C(=O)NNC(=O)C(C)Oc2ccc(Cl)cc2Cl)cc1 (stereo not given)
 : 0	0.5	2.0	-0.9%	0	-7
COc1ccc2nc(SCC(=O)NC3CCCc4ccccc43)[nH]c2c1 (stereo not given)
 : -2	1.6	4.7	-0.2%	1	-10
O=C(NCC1COc2ccccc2O1)c1c[nH]c2ccc(S(=O)(=O)N3CCOCC3)cc2c1=O (stereo not given)
 : 1	-2.4	0.2	8.4%	0	13
COc1ccc(CCn2c(=N)c(C(=O)NCCN3CCOCC3)cc3c(=O)n4ccccc4nc32)cc1OC
 : -3	1.2	-0.5	0.3%	-11	-10
CCOC(=O)c1c(NC(=O)COC(=O)CNC(=O)c2ccco2)sc(C(C)=O)c1C
 : -3	-0.5	0.5	0.8%	-6	-13
CC1=C(C(=O)Nc2ccccc2)C(c2ccc(C(=O)O)cc2)n2ncnc2N1 (stereo not given)
 : 0	·	1.0	-4.6%	·	·
O=C(Nc1ccc(F)c(Cl)c1)c1cc(C2CCCCN2C(=O)c2ccc3c(c2)CCO3)on1 (stereo not given)
 : ·	-3.0	0.3	1.7%	2	-5
CCC(CC)c1nn2c(=O)cc(COc3ccc(NC(=O)c4cccc(C)c4)cc3)nc2s1
 : -8	·	-0.9	0.2%	·	·
CC(=O)C(Cc1cccc(F)c1)(Cc1cccc(F)c1)C(C)=O
 : 3	-2.9	1.4	1.1%	34	-6
O=C(Nc1ccc(NC(=O)C2CCCCC2)nc1)c1ccccn1
 : 0	6.0	0.0	3.8%	-2	0
Cc1n(N)c2ccccc2[n+]1CC(=O)c1ccccc1
 : -10	-6.1	-0.5	0.3%	11	-5
O=C(N/N=C/C=C\c1ccco1)c1ccccn1
 : -7	-5.4	0.3	-0.4%	-88*	-6
Cn1c(SC(C(=O)Nc2ccc(F)cc2)c2ccccc2)nc2ccccc21 (stereo not given)
 : 27	0.0	-0.9	2.9%	-9	-1
Cc1ccc(Nc2ccc(N3CCN(C(=O)c4ccc([N+](=O)[O-])cc4Cl)CC3)nn2)cc1
 : -15	·	9.0	1.3%	·	·
Cc1ccc(C(=O)OCC(=O)N(C)C2CCS(=O)(=O)C2)cc1S(=O)(=O)N1CCCCC1 (stereo not given)
 : 13	-2.4	-0.7	1.1%	4	-25
Cc1csc(SCC(=O)Nc2cc(F)ccc2C)n1
 : -6	0.4	-1.0	-0.9%	1	-5
Clc1nnc(NC2CCCCC2)c(Cl)c1Cl
 : 10	-3.5	0.7	-0.4%	6	-3
Cc1ccc(NC(=O)Nc2ccc3snnc3c2)cc1C
 : -10	·	0.9	6.2%	·	·
C/C(=N\NC(=O)CO/N=C(\C)c1cccs1)c1ccc(N)cc1
 : 18	-2.1	3.0	-0.1%	-16	-6
CC1CC(C)CN(S(=O)(=O)c2cc(C(=O)O)c(Cl)s2)C1 (stereo not given)
 : -18	-2.2	-0.3	0.4%	1	4
Nc1nc2c(s1)C(=O)CCC2
 : 9	-1.3	-0.1	0.6%	0	-12
O=C(COC(=O)c1cccc(F)c1)NC(=O)NC1CCCC1
 : 2	-3.5	0.9	2.7%	4	1
O=C(CN1C(=O)NC2(CCc3ccccc32)C1=O)c1ccc(F)cc1 (stereo not given)
 : 0	0.2	0.2	2.1%	0	-6
CN(C)CCN(Cc1ccco1)C(=O)c1cc2c(Cl)nc3ccccc3c2s1
 : 2	-2.5	3.0	-2.5%	-1	-6
COc1ccc(CNc2cc(-c3ccc(OC)cc3)nc3nncn23)cc1
 : 9	·	0.2	0.0%	·	·
CCCCCOC(=O)Cn1c(=O)c2c(nc(N3CCOCC3)n2C)n(C)c1=O
 : 4	-2.8	-0.6	1.6%[38.3 µM]	-3	-9
Cc1cc(C)n2nc(SCC(=O)N/N=C/c3ccc(F)cc3)nc2n1
 : 3	-1.9	-0.7	11%[38.3 µM]	-18	-4
O=C1C(Cl)=C(NCC2CCCO2)C(=O)N1CCc1ccccc1 (stereo not given)
 : 5	-2.2	3.4	1.1%[38.3 µM]	25	-11
CC(=O)Nc1ccc(S(=O)(=O)NC(C)c2ccccc2)cc1 (stereo not given)
 : 30	8.9	0.6	1.4%	-4	-1
CCOC(=O)C1=C(CC)Nc2ccccc2N=C1NC(=O)Nc1ccc(Cl)c(Cl)c1
 : 36	3.8	0.3	?	0	-18
COc1cc2nc(CN(C)CC(=O)Nc3ccc(N4CCOCC4)cc3)[nH]c(=O)c2cc1OC
 : 7	-2.4	0.0	-0.4%	?	-2
CN(C)S(=O)(=O)c1cccc(C(=O)OCC(=O)Nc2ccc3c(c2)OCCO3)c1
 : 3	0.0	0.1	-0.7%	-2	-4
COc1ccc(CNC(=O)COc2cc(=O)n(C)c3ccccc23)cc1
 : 13	-7.0	1.0	3.3%	-7	-4
N#C/C(=C/c1ccc(-c2ccccc2)o1)c1nc(-c2cccs2)cs1
 : ?	1.6	?	8.8%	24	3

# Four of the compounds above, with bars between the fields.
compound | TRPML1 inh | D2 ag | TRPML1 agonist | PINK1 expr mod | Six1-Eya2 inh | D2 PAM
CCOC(=O)C1=C(CC)Nc2ccccc2N=C1NC(=O)Nc1ccc(Cl)c(Cl)c1 | 36 | 3.8 | 0.3 | ? | 0 | -18
COc1cc2nc(CN(C)CC(=O)Nc3ccc(N4CCOCC4)cc3)[nH]c(=O)c2cc1OC | 7 | -2.4 | 0.0 | -0.4% | ? | -2
CN(C)S(=O)(=O)c1cccc(C(=O)OCC(=O)Nc2ccc3c(c2)OCCO3)c1 | 3 | 0.0 | 0.1 | -0.7% | -2 | -4
COc1ccc(CNC(=O)COc2cc(=O)n(C)c3ccccc23)cc1 | 13 | -7.0 | 1.0 | 3.3% | -7 | -4

# Further records.
# Second line of a record – TRPML1 inh	D2 ag	TRPML1 agonist	PINK1 expr mod	Six1-Eya2 inh	D2 PAM
CCn1c2ccccc2c2cc(/C=N/NC(=O)c3cccc(C)c3)ccc21
 : -4	0.7	1.1	1.2%	0	8
O=C(Cn1nnc2ccccc2c1=O)NC1CCCCC1
 : -8	-2.0	0.9	2.6%	7	0
COc1ccc(/C(O)=C/C(=O)C(=O)NNC(=O)c2ccccc2)cc1
 : -12	-3.9	-0.4	-0.5%	-7	-10
CCc1ccccc1NC(=O)CSc1nnc([C@@H](N)Cc2ccccc2)o1
 : -1	-2.4	-1.0	27%[38.3 µM]	1	-9
O=C(NCc1ccccc1F)C1CCN(C(=O)c2sccc2-n2cccc2)CC1
 : -18	0.2	-1.0	1.6%	6	-4
COc1ccccc1CCNC(=O)C(C)n1nc(C)c2c(C)n(-c3ccccc3)nc2c1=O (stereo not given)
 : -8	0.9	0.5	-1.0%	-1	-7
COc1cccc(NC(=O)N2CCCC2C(=O)NC2CC2)c1 (stereo not given)
 : 4	-1.8	-0.4	2.0%	1	-14
CC(C)CC(=O)NC(=S)Nc1ccc(N2CCOCC2)c(Cl)c1
 : 25	3.7	0.7	-1.1%	-6	-2

# Source: PubChem

# Hits appear at their usual frequency; any-hit rate near 1%.
